High-throughput results as filed in PubChem BioAssay.
Rango release inh = inhibitors of RanGTP-induced Rango-importin beta complex dissociation; O95149+P62826; Biochemical FRET Rango-importin beta, RanGTP-induced dissociation; Potency, µM (titrated, usually from 46.1 µM), without a hit: at the top dose activity change, negative = inhibition; hit rate 0.071% among 340,000; active means falling FRET ratio curve, often poorly fitted, with flat reads before Ran was added; inconclusive means other falling curves, or compound fluorescence or quenching; inactive means flat or rising ratio curve;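 note: potency is the fitted concentration of half-maximal effect; % of control where 0% means no effect; nearly all actives have a fitted effect of over 45% in size; -100% = wells without RanGTP and RCC1; the record marks most hits as doubtful in a second field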
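FRET read at 45 min, room temperature: inhibitors block the CFP/YFP signal rise when RanGTP (0.6 uM Ran, 2 mM GTP, 0.2 uM RCC1) frees Rango (0.1 uM) from importin beta (0.25 uM). Pre-read after 5 min compound exposure flags interference.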
GLA inh pH 4.5 = blocks human alpha-galactosidase A at pH 4.5; P06280; purified enzyme, 4-MU-alpha-Gal fluorescence, pH 4.5; activity change, negative = inhibition, % at 105 µM; 230,000 tested, under 10 active; AID 1467; inconclusive = small, poorly fitted or top-dose-only inhibition, or a rising curve; inactive = flat fitted curve, though single readings scatter; no compound was filed as active;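 note: 0% = full activity with enzyme and -100% = basal without enzyme; dose as in the result columns while the protocol names 77 µM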
Target sequence (P06280 whole entry, looked up): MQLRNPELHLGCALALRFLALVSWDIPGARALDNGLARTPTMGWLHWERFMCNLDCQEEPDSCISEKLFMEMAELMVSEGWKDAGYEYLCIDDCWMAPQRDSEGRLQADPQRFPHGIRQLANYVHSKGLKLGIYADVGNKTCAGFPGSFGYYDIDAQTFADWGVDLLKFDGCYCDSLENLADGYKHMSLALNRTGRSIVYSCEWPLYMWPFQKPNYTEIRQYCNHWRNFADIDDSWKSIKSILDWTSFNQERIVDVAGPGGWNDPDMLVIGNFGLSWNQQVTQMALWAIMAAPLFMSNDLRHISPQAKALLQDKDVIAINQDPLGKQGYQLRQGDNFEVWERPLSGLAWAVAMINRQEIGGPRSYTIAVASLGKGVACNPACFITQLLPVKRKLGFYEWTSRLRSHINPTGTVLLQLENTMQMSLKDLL
Rango-impB inh = inhibitors of Rango-importin beta complex formation. Q14974. Rango CFP/YFP FRET sensor + importin beta, 45 min. Potency, µM (top dose mostly 92.2 µM), without a hit: at the highest dose inhibition of complex formation. hit rate 0.031% among 340,000; active = rising FRET ratio curve, often small or poorly fitted; inconclusive = mostly compound fluorescence or quenching in the first reads; inactive = flat curves in all reads;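 note: potency is the fitted concentration of half-maximal effect; 0% = DMSO wells and 100% = buffer wells lacking importin beta; nearly all actives have a fitted effect of over 15% in size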
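FRET biosensor (snurportin 1 IBB flanked by EYFP and cerulean), 50 nM, with compound 5 min, then 0.125 microM importin beta in PBS, 1 mM DTT, 0.02% Tween-20, 0.1% BSA. CFP/YFP ratio read after 45 min at room temperature; pre-read flags interference.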
miR-21 reporter = raises the signal of a miR-21 reporter; HeLa miR-21 FLuc reporter, luciferase, 48 h; Potency, µM (highest dose often 38.3 µM), for the others: at the top dose reporter change, positive = more light; 340,000 tested, under 10 active; active = well fitted rising curve with a large enough effect; inconclusive = small, poorly fitted or top-dose-only effect; inactive = no such curve, though single readings can be large or run the other way;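 note: % of control where 0% means no effect; miR-21 action dims this reporter so a rising signal means less miR-21 action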
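HeLa cells endogenously expressing miR-21, stably carrying CMV-driven firefly luciferase with a downstream miR-21 binding site, 2000 cells/well. Titrations up to approximately 40 uM, 48 hours; luciferase luminescence read.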
Active calls of the source: *; ? = inconclusive; / = no result given. Some of the compounds tested, so the mix of outcomes need not match the whole.

#	miR-21 reporter	Rango release inh	Rango-impB inh	GLA inh pH 4.5	structure
1	-40.0%	0.4%	-0.8%	1.2	COC(=O)Cc1c(C)c2ccc(OCC(C)=O)c(C)c2oc1=O
2	15.2%	1.4%	1.1%	5.2	CCO[C@H]1OC(C(=O)NCc2nc3ccccc3[nH]2)=C[C@@H](c2csc3ccccc23)[C@@H]1CCCO
3	-0.3%	19.4%	0.4%	/	Cc1c(CN2CCCC(C(=O)Nc3cccc(-n4cccn4)c3)C2)cnn1C (stereo not given)
4	-9.8%	-12.7%	-9.4%	-0.6	CC(/C=N/NC(=O)Cc1cccn1C)=C\c1ccco1
5	0.6%	-11.0%	-5.9%	-0.7	COc1ccc(NC(=O)COC(=O)c2c(C)noc2C)c(OC)c1
6	-6.9%	-12.9%	-0.8%	1.4	CCOC(=O)N1CCN(C(=O)c2ccc3c(SCC(=O)O)c4c(nc3c2)CCCC4)CC1
7	-0.7%	-6.4%	2.1%	2.7	CC(=O)OCCOc1nc(N(C)C)nc(N(C)C)n1
8	-4.9%	-1.1%	2.9%	-5.6	CCOCCCNC(=O)c1cccs1
9	-2.8%	-3.1%	-0.7%	/	O=C1CCC(=O)N1c1ccccc1OS(=O)(=O)c1ccccc1
10	-21.3%	-13.0%	?	-13.4	Cc1c(Cc2ccc3c(c2)OCO3)sc(NC(=O)c2ccccc2)c1C(N)=O
11	-13.2%	?	-4.4%	/	C/C(=N/NC(=O)c1cccc(N2CCCC2=O)c1)c1ccc(Br)cc1
12	-21.2%	-2.4%	0.1%	-5.2	Cc1cc(Oc2ccc(=O)[nH]n2)nc(Cl)n1
13	11.0%	14.0%	6.0%	-0.9	NC(=S)N/N=C/c1ccc(-c2cc(Cl)ccc2Cl)o1
14	-0.4%	1.5%	1.2%	-5.5	COc1ccc(S(=O)(=O)NCC(c2cccnc2)N2CCN(c3ccc(F)cc3)CC2)cc1C (stereo not given)
15	-3.6%	-17.3%	-3.3%	6.8	COc1ccc(S(=O)(=O)Nc2cc(C)ccn2)cc1OC

Profiles, quoted from the list.
`Cc1cc(Oc2ccc(=O)[nH]n2)nc(Cl)n1` is entered as miR-21 reporter: -21.2%; Rango release inh: -2.4%; Rango-impB inh: 0.1%; GLA inh pH 4.5: -5.2
`CCOCCCNC(=O)c1cccs1` is entered as miR-21 reporter: -4.9%; Rango release inh: -1.1%; Rango-impB inh: 2.9%; GLA inh pH 4.5: -5.6
`Cc1c(Cc2ccc3c(c2)OCO3)sc(NC(=O)c2ccccc2)c1C(N)=O` is entered as miR-21 reporter: -21.3%; Rango release inh: -13.0%; Rango-impB inh: ?; GLA inh pH 4.5: -13.4

Next section:
#	miR-21 reporter	Rango release inh	Rango-impB inh	GLA inh pH 4.5	structure
16	-3.2%	-18.1%	3.6%	11.8	Nc1ccc(C(=O)OCC(=O)NC2CCCc3ccccc32)cc1[N+](=O)[O-] (stereo not given)
17	-0.6%	-13.7%	-1.2%	4.0	CCOC(=O)C1(C)NC(c2ccco2)C2C(=O)N(CC)C(=O)C21 (stereo not given)
18	-6.2%	-8.8%	1.5%	-2.3	COCCSc1nnc(NC(=O)Cc2ccccc2OC)s1
19	-5.3%	12.6%	0.8%	/	CC(=O)Nc1ccc(NC(=O)C(C)N(C)CC(=O)Nc2ccccc2Br)cc1 (stereo not given)
20	-28.1%	-7.3%	5.5%	-2.0	CC(=O)c1cc2c(cc1NS(=O)(=O)c1ccccc1)OCO2
21	/	16.1%	-3.0%	/	O=C1CC2(CCN(C(=O)c3ccccc3F)CC2)Oc2ccccc21
22	1.7%	-2.7%	5.6%	/	CC(=O)NS(=O)(=O)c1ccc(NS(=O)(=O)c2ccc3ccccc3c2)cc1
23	-0.2%	-5.7%	3.2%	/	Cc1ccc(-c2cc(C(=O)N3CCCCC3)c3ccccc3n2)cc1C
24	-5.2%	0.7%	-4.3%	5.4	COC(=O)c1c(NC(=O)CN2CCN(C(=O)c3ccco3)CC2)c2cc(C)ccc2n1C
25	22.0%	-9.2%	0.2%	/	O=C(CCCc1nc(-c2ccc(Cl)cc2)no1)NCC1CCCO1 (stereo not given)
26	1.1%	-6.3%	0.9%	13.2	CNc1nc(SC)nc2ccccc12
27	-5.2%	1.9%	-0.1%	/	CSCC(C)N1CCC(n2nccc2NC(=O)CCOc2ccccc2)CC1 (stereo not given)
28	0.0%	4.6%	-2.8%	2.6	CC(=O)c1c(C)nc(C)nc1NC(=O)C(C)C
29	-3.2%	0.6%	5.9%	1.4	O=C(O)COc1ccccc1/C=N/Nc1ccc(S(=O)(=O)N2CCOCC2)cc1[N+](=O)[O-]
30	-3.6%	1.5%	0.8%	/	COc1ccccc1-c1nc2cc(Cl)ccc2c(=O)n1O
31	/	7.4%	1.6%	/	CCN(C(=O)CSc1nnc(-c2ccc(C)cc2)n1N)c1c(N)n(Cc2ccccc2)c(=O)[nH]c1=O
32	-4.9%	-0.1%	2.6%	-6.2	Cn1c(NC(=O)c2ccc(S(=O)(=O)N3CCOCC3)cc2)cc(=O)n(C)c1=O
33	-0.1%	-3.9%	0.3%	/	Cc1cc(OC(=O)c2cc(Br)ccc2Cl)c([N+](=O)[O-])c(=O)[nH]1
34	-58.8%	28.7%	1.3%	3.1	N/C(=N\OC(=O)c1ccccc1Cl)c1cccnc1
35	2.7%	-7.7%	0.4%	/	CCN(CC)CCCNC(=O)CNC(=O)c1nn(-c2ccc(OC)c(OC)c2)c(=O)c2ccccc12
36	7.2%	9.5%	0.0%	1.7	CCOc1ccc(-c2cc(C(=O)O)c3ccccc3n2)c(OCC)c1
37	3.2%	?	-0.2%	/	CC(=O)N1CCCc2cc(S(=O)(=O)Nc3cccc(C)c3C)ccc21
38	?	11.9%	-1.3%	-23.9	CCOC(=O)N1CCC(N(CCN(C)C)C(=S)Nc2cc(Cl)cc(Cl)c2)CC1
39	5.5%	1.3%	2.4%	0.8	CCOc1ccccc1N1C(=O)CC(Sc2ncccc2C(=O)O)C1=O (stereo not given)
40	-59.3%	8.4%	-0.4%	-7.2	Cc1nc(-c2ccccc2)sc1-c1ccnn1C
41	-1.8%	20.7%	-1.4%	4.0	O=C(C1CCCN(Cc2ccccc2C(F)(F)F)C1)N1CCCCC1 (stereo not given)
42	0.1%	-2.1%	0.6%	-7.9	CCOC(=O)c1ccc(NC(=O)N2CCN(Cc3cccc(F)c3)CC2)cc1
43	0.9%	-2.2%	-5.8%	2.8	COc1ccc(CCNC(=O)C2CCC(=O)N2CCc2ccccc2)cc1OC (stereo not given)
44	/	-1.2%	-0.9%	/	Cc1cccn2c(=O)c(C(=O)NC3CC(C)CC(C)(C)C3)c(O)nc12 (stereo not given)
45	2.5%	11.1%	0.8%	-5.3	N#CCCn1cc(/C=N/NC(N)=S)c(-c2ccccc2)n1

Ordered by the number under Rango-impB inh (largest number first): 3 from the list above
#	miR-21 reporter	Rango release inh	Rango-impB inh	GLA inh pH 4.5	structure
45	2.5%	11.1%	0.8%	-5.3	N#CCCn1cc(/C=N/NC(N)=S)c(-c2ccccc2)n1
37	3.2%	?	-0.2%	/	CC(=O)N1CCCc2cc(S(=O)(=O)Nc3cccc(C)c3C)ccc21
38	?	11.9%	-1.3%	-23.9	CCOC(=O)N1CCC(N(CCN(C)C)C(=S)Nc2cc(Cl)cc(Cl)c2)CC1

The main list resumes, starting five compounds before the break.
#	miR-21 reporter	Rango release inh	Rango-impB inh	GLA inh pH 4.5	structure
41	-1.8%	20.7%	-1.4%	4.0	O=C(C1CCCN(Cc2ccccc2C(F)(F)F)C1)N1CCCCC1 (stereo not given)
42	0.1%	-2.1%	0.6%	-7.9	CCOC(=O)c1ccc(NC(=O)N2CCN(Cc3cccc(F)c3)CC2)cc1
43	0.9%	-2.2%	-5.8%	2.8	COc1ccc(CCNC(=O)C2CCC(=O)N2CCc2ccccc2)cc1OC (stereo not given)
44	/	-1.2%	-0.9%	/	Cc1cccn2c(=O)c(C(=O)NC3CC(C)CC(C)(C)C3)c(O)nc12 (stereo not given)
45	2.5%	11.1%	0.8%	-5.3	N#CCCn1cc(/C=N/NC(N)=S)c(-c2ccccc2)n1
46	-20.6%	15.2%	-2.0%	/	CCN(CC)CCNC(=S)Nc1ccc2nc(N3CCN(C)CC3)cc(C)c2c1
47	-7.8%	?	?	9.6	O=c1oc2ccc(Br)cc2cc1S(=O)(=O)c1ccc(F)cc1
48	-4.1%	-7.9%	1.7%	0.6	CS(=O)(=O)N(CC(=O)NCC1CCCO1)c1cc(Cl)cc(Cl)c1 (stereo not given)
49	-5.0%	-0.5%	0.1%	-1.8	CS(=O)(=O)c1ccc(N)cc1
50	-0.4%	-7.5%	2.2%	/	COc1cccc(NC(=O)NCC2CCN(Cc3ccc(F)cc3)CC2)c1
51	-22.2%	1.5%	1.9%	5.9	CCN(CC)C(=O)CSc1nnc2sc3ccccc3n12
52	-2.1%	-9.7%	-0.1%	/	Cc1nonc1CC(=O)NC1CCCc2c1cnn2-c1ccc(F)cc1F (stereo not given)
53	/	-6.6%	0.5%	/	O=C(COC(=O)c1ccc(F)c(S(=O)(=O)N2CCOCC2)c1)NCc1ccc(F)cc1
54	-4.8%	0.2%	-4.4%	-1.5	CCOC(=O)C(C(=O)OCC)C(Nc1ccccc1)c1ccccc1 (stereo not given)
55	-39.7%	?	?	2.8	COc1ccc(-c2nn3c(-c4ccco4)nnc3s2)cc1OC
56	1.8%	?	?	-12.5	CCCCCCOC(=O)C(C#N)c1nc2ccccc2nc1N1CCN(C)CC1 (stereo not given)
57	-16.1%	-1.7%	-0.4%	/	COCc1cc(C)nc(SCc2ccc(F)cc2)c1C#N
58	0.0%	23.6%	-1.8%	-7.7	O=C1COc2ccc(S(=O)(=O)Nc3ccc4c(c3)OCO4)cc2N1
59	26.4%	7.6%	-2.7%	-0.8	COc1cc(C2CC(=O)N(c3ccc(C)cc3)C(=O)C2)cc(OC)c1OC
60	-4.5%	6.3%	1.0%	1.8	CCOC(=O)c1ccc(NC(=O)N2CCN(Cc3ccccc3)CC2)cc1
61	0.2%	-18.1%	-0.7%	-3.2	CCCn1ncc(CN2CCC(N3CCC(C(=O)N4CCOCC4)CC3)CC2)c1C
62	2.4%	-12.4%	-2.6%	3.8	O=C(O)C1C(c2ccccc2)C(C(=O)OCCCO)C1c1ccccc1 (stereo not given)
63	/	8.4%	-0.5%	/	CCCNC(=O)C(Cc1ccccc1)NC(=O)c1cccc([N+](=O)[O-])c1 (stereo not given)
64	-24.2%	17.8%	0.9%	-2.6	O=C(NCc1cccs1)c1cnc2ccccn2c1=O
65	4.0%	0.8%	1.7%	10.8	COc1cc(CC(=O)OCC(=O)N2CC(=O)Nc3ccccc32)cc(OC)c1OC
66	12.9%	?	0.5%	20.3	O=C(NNc1nc(-c2ccc(Cl)cc2)cs1)c1ccco1
67	1.7%	2.6%	-0.5%	-0.5	COc1ccc(CCN2C(=O)/C(=C\c3ccco3)SC2=S)cc1OC
68	6.5%	-6.3%	-4.6%	/	NC(=O)c1nsc(C(=O)N(CC(=O)NCc2ccccc2)c2cccc(F)c2)c1N
69	0.3%	10.4%	1.9%	-13.3	Cc1cc(C)cc(OCC(=O)Nc2ccc(CN3CCCCC3)cc2)c1
70	0.2%	-0.6%	0.9%	/	CC(C)(c1ccccc1)c1ccc(OCCN2CCOCC2)cc1
